From PubChem
GLA inh pH 4.5 – inhibitors of human alpha-galactosidase A at pH 4.5 | activity change, negative = inhibition, % at 105 µM | 230,000 tested, under 10 active | purified enzyme, 4-MU-alpha-Gal fluorescence, pH 4.5 | P06280; inconclusive = small, poorly fitted or top-dose-only inhibition, or a rising curve; inactive = flat fitted curve, though single readings scatter; no compound was filed as active;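 further: 0% = full activity with enzyme and -100% = basal without enzyme; dose as in the result columns while the protocol names 77 µM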
Target sequence (P06280 whole entry, looked up): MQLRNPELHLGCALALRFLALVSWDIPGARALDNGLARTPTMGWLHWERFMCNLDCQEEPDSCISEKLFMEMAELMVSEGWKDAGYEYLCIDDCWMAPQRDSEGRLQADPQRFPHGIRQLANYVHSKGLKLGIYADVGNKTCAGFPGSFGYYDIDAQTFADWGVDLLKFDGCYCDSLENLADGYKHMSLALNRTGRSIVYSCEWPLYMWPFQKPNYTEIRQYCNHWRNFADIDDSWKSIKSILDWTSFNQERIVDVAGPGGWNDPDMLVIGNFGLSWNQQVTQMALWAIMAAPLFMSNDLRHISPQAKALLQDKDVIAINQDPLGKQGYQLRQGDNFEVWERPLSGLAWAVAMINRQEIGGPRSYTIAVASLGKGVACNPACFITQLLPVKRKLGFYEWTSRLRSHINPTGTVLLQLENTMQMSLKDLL
Rango-impB inh – prevents formation of the Rango-importin beta complex; Q14974; Rango CFP/YFP FRET sensor + importin beta, 45 min; Potency, µM (titrated, usually from 92.2 µM), for the others: at the top dose inhibition of complex formation; actives 0.031% (n = 340,000); AID 540263; active = rising FRET ratio curve, often small or poorly fitted; inconclusive = mostly compound fluorescence or quenching in the first reads; inactive = flat curves in all reads;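 further: potency means the concentration at half of the fitted maximal effect; 0% = DMSO wells and 100% = buffer wells lacking importin beta; nearly all actives have a fitted effect of over 15% in size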
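Inhibition scored from the CFP 486 nm/YFP 530 nm FRET ratio 45 min after adding 0.125 microM importin beta to 50 nM Rango biosensor preincubated 5 min with compound (room temperature, PBS with DTT, Tween-20, BSA). No-importin wells as positive control.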
Rango dissoc inh – inhibition of RanGTP-driven Rango-importin beta dissociation; O95149+P62826; Biochemical FRET Rango-importin beta, RanGTP-induced dissociation; Potency, µM (top dose mostly 46.1 µM), for the others: at the top dose activity change, negative = inhibition; actives 0.071% (n = 340,000); AID 540253; active means falling FRET ratio curve, often poorly fitted, with flat reads before Ran was added; inconclusive means other falling curves, or compound fluorescence or quenching; inactive means flat or rising ratio curve;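 further: potency means the concentration at half of the fitted maximal effect; % of control where 0% means no effect; nearly all actives have a fitted effect of over 45% in size; -100% = wells without RanGTP and RCC1; the record marks most hits as doubtful in a second field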
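Rango FRET biosensor (snurportin-1 IBB flanked by N-terminal EYFP and C-terminal CFP10) at 0.1 uM, with 0.25 uM importin beta in PBS, 1mM DTT, 0.02% Tween-20, 0.1% BSA. 0.6 uM Ran, 2mM GTP and 0.2 uM RCC1 were then added for 45 min at room temperature. Inhibition read as loss of FRET rise.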
miR-21 FLuc – raises the signal of a miR-21 reporter. HeLa miR-21 FLuc reporter, luciferase, 48 h. Potency, µM (highest dose often 38.3 µM), for inactives: top-dose reporter change, positive = more light. 340,000 tested, under 10 active; active = well fitted rising curve with a large enough effect; inconclusive = small, poorly fitted or top-dose-only effect; inactive = no such curve, though single readings can be large or run the other way;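 further: % of control where 0% means no effect; miR-21 action dims this reporter so a rising signal means less miR-21 action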
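HeLa cells endogenously expressing miR-21, stably carrying CMV-driven firefly luciferase with a downstream miR-21 binding site, 2000 cells/well. Titrations up to approximately 40 uM, 48 hours; luciferase luminescence read.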
Starred values were filed as active, the others as inactive; ? = inconclusive; / = no result given. Only part of the results is shown, so the mix of outcomes need not match the whole.

SMILES | GLA inh pH 4.5 | Rango-impB inh | Rango dissoc inh | miR-21 FLuc
COc1ccc(C(=O)C2CCCN(Cc3cccn3-c3ccccn3)C2)c(C)c1 (centres undefined) | -3 | -0.3% | -2% | 25%
Cc1cccc(N(CC(=O)NC(C)(C)C)C(=O)CCC(=O)Nc2ccccn2)c1 | / | 0.1% | 12% | 6%
CC(CNC(=O)C(=O)NC(C)CCc1ccccc1)Cc1ccccc1 (centres undefined) | -4 | 3.0% | -1% | -17%
CNc1cnn(-c2ccc(C)cc2)c(=O)c1Cl | 5 | -0.1% | -24% | -31%
COc1ccc2c(c1)C(=O)CC(c1ccccc1)O2 (centres undefined) | / | -2.2% | -4% | /
Cc1ccc(CN2CCN(Cc3ccc4cc(F)ccc4n3)CC2CCO)o1 (centres undefined) | 5 | 2.9% | -2% | -6%
Cc1cccc(NC(=O)COc2ccc3c(c2)CCC3)n1 | / | 2.0% | 1% | /
CCOC(=O)c1cnn(-c2cc(C)cc(C)c2)c1N | 7 | 2.2% | 7% | -15%
O=C(COc1ccc(Cl)cc1)N1CCN(S(=O)(=O)c2ccccc2)CC1 | 0 | 2.7% | -12% | 3%
CCCn1c(=O)n(C)c(=O)c2c(SCc3cc(C(C)=O)ccc3OCC)nc(C3CC3)nc21 | / | -3.2% | -7% | /
COc1ccc(OC)c(S(=O)(=O)N2CCC(C(=O)N3CCOCC3)CC2)c1 | -1 | 2.9% | 0% | 1%
CC(=O)Nc1ccc(S(=O)(=O)NCCC(=O)OCc2ccccc2F)cc1 | / | -0.6% | 0% | /
NC(=O)NCCCC(=O)O | / | -1.4% | 13% | /
COc1ccc(N(CC(=O)Nc2cccc(C)c2C)S(=O)(=O)c2c(C)n[nH]c2C)cc1 | -4 | 0.4% | -3% | 1%
CCc1nnc(NC(=O)CSc2nnc(C)n2-c2ccc(C)cc2)s1 | 2 | 2.8% | 1% | 0%
COc1ccc(C(=O)c2cc(OC)c(OC)c(OC)c2)cc1OC | / | -0.8% | -6% | /
CCC(CO)Oc1cc(NC(=O)c2cccc(F)c2)c2ncn(C(C)C)c2c1 (centres undefined) | / | 1.1% | 9% | /
CCN(CCCNC(=O)COc1cc(=O)n(CC)c2ccccc12)c1ccccc1 | -18 | 3.2% | 8% | -1%
CC(C)(C)NC(=O)CN1CCC(O)(c2ccccc2)CC1 | 4 | -0.6% | 2% | -3%
O=C(c1ccccc1Cl)N1CCc2ccccc2C1 | 3 | -0.4% | -2% | -12%
COc1ccc(-c2c(C)oc3c(CN4CCCCC4C)c(O)ccc3c2=O)cc1OC (centres undefined) | 9 | -2.1% | 16% | -9%
Cc1ccc(NC(=O)Cn2nc(C)c3ccccc3c2=O)cc1F | 1 | -5.6% | -2% | -2%
CCOC(=O)c1oc2nc(C)c3c(c2c1N)CC(C)(C)OC3 | 13 | -2.0% | -12% | -7%
CCCn1c(N)c(Sc2ccc([N+](=O)[O-])cc2)c(=O)n(CCC)c1=O | -4 | 1.3% | 2% | 0%
O=C(COC(=O)/C=C/c1ccccc1Cl)NCC1CCCO1 (centres undefined) | / | -2.0% | 19% | /
Next entries
SMILES | GLA inh pH 4.5 | Rango-impB inh | Rango dissoc inh | miR-21 FLuc
CC1=C(C(=O)OC2CCCCC2)C(c2ccccc2Br)NC(=O)N1 (centres undefined) | / | -0.2% | 15% | 4%
O=C(NNC(=O)c1sccc1-n1cccc1)Nc1ccc(F)cc1 | 3 | -0.2% | 1% | -1%
O=C(COC(=O)CC1CC2CCC1C2)Nc1c(F)cccc1F (centres undefined) | -8 | -1.7% | -3% | 0%
CC(=O)Nc1ccc(S(=O)(=O)N(C)CC(=O)Nc2ccccc2N2CCCC2)cc1 | / | -1.2% | 9% | /
O=S(=O)(Cc1ccc(Cl)cc1)C1CCCCC1O (centres undefined) | -4 | 0.9% | 12% | -4%
O=C(NC1CCCc2ccccc21)C12CC3CC(CC(O)(C3)C1)C2 (centres undefined) | 6 | 0.0% | 6% | 5%
COc1ccc(/C=N/NC(=O)CCc2ccccc2)cc1O | 5 | -0.5% | 2% | -4%
O=C(COC(=O)COc1ccc(Cl)cc1Br)NC1CCCCCC1 | / | 3.7% | -26% | /
CC(=O)c1ccc(NC(=S)N2CCN(c3ccccn3)CC2)cc1 | / | -4.2% | 10% | -2%
COc1ccc(-c2nnc(COc3ccc(Br)cc3C)o2)cc1 | / | 4.9% | 31% | /
O=C1NC(=S)S/C1=C\c1coc2ccc(O)cc2c1=O | -5 | -4.2% | ? | -27%
Cc1cc(C)nc(N2CCCC(C(=O)NCc3cccs3)C2)n1 (centres undefined) | -13 | 1.3% | 2% | 2%
Cc1ccc2c(c1)N(C(C)C(=O)NCCc1ccccc1)C(=O)CO2 (centres undefined) | 2 | -0.7% | -10% | -29%
CCN(CC(=O)Nc1ccccc1OC)C(=O)c1ccc2[nH]c3c(c2c1)CC(C)CC3 (centres undefined) | / | ? | ? | /
O=C(c1cccc(C(F)(F)F)c1)N1CCc2c([nH]c3ccccc23)C1C(F)(F)F (centres undefined) | -9 | 1.3% | -1% | 28%
Cc1ccc(C)c(NC(=O)/C(C#N)=C/c2ccc(Sc3nncn3C)c([N+](=O)[O-])c2)c1 | -4 | / | / | 0%
O=C(CN1c2cccc3cccc(c23)S1(=O)=O)NCc1ccc2c(c1)OCO2 | -3 | 0.5% | 4% | -24%
O=C1CC(N2CCN(c3ccccc3)CC2)C(=O)N1c1ccc2c(c1)OCCO2 (centres undefined) | 4 | 0.5% | 0% | -14%
O=C(Nc1ccc(Cl)cn1)c1ccc2ccccc2n1 | -4 | 0.2% | 3% | -27%
COc1cc(/C=C/C(=O)OCC(=O)N2CCCc3ccccc32)ccc1O | / | ? | 15µM* | /
Cc1ccc(C(=O)NCC(=O)NCCCc2ccccc2)cc1 | / | -1.9% | -5% | -1%
CCc1cc(=O)oc2cc(OC(C)=O)cc(OC(C)=O)c12 | ? | ? | 12µM* | 12%
CSCC[C@H](NC(=O)[C@@H]1Cc2ccccc2CN1)C(=O)Nc1ccc2c(c1)OCO2 | / | ? | -4% | -13%
O=C(CSc1nc(-c2ccccc2)cc(=O)[nH]1)Nc1ccccc1 | / | -2.0% | -11% | -1%
CC1(C)CC(=O)C(C=NCC(N)=O)=C(O)C1 | -21 | -4.7% | 15% | 4%

Records listed above marked active in Rango dissoc inh.
SMILES | GLA inh pH 4.5 | Rango-impB inh | Rango dissoc inh | miR-21 FLuc
COc1cc(/C=C/C(=O)OCC(=O)N2CCCc3ccccc32)ccc1O | / | ? | 15µM* | /
CCc1cc(=O)oc2cc(OC(C)=O)cc(OC(C)=O)c12 | ? | ? | 12µM* | 12%

Arranged by the number under Rango dissoc inh (largest number first): some entries from above.
structure | Rango dissoc inh
CC1=C(C(=O)OC2CCCCC2)C(c2ccccc2Br)NC(=O)N1 (centres undefined) | 15%
O=C(NNC(=O)c1sccc1-n1cccc1)Nc1ccc(F)cc1 | 1%
Cc1ccc(C(=O)NCC(=O)NCCCc2ccccc2)cc1 | -5%
O=C(CSc1nc(-c2ccccc2)cc(=O)[nH]1)Nc1ccccc1 | -11%

Following part.
SMILES | GLA inh pH 4.5 | Rango-impB inh | Rango dissoc inh | miR-21 FLuc
COc1ccc(/C(N)=N/OC(=O)CCc2ccccc2)cc1 | -7 | -1.7% | 0% | -51%
Cc1ccc(S(=O)(=O)N2CCC(C(=O)Nc3ccc(C(C)C)cc3)CC2)cc1 | / | -5.7% | 11% | /
Cc1ccc(-c2ccc(=O)[nH]n2)cc1 | -4 | 0.3% | -3% | -20%
Nc1ccc(O)c2c1C(=O)c1ccccc1C2=O | 6 | -7.3% | -6% | -12%
CCOC(=O)c1c(S(=O)(=O)NCC(=O)Nc2ccccc2F)c(C)n(C)c1C | / | 0.1% | -3% | -3%
CCN(CC)c1ccc(/C=N/NC(=O)c2ccoc2C)c(O)c1 | -3 | ? | ? | -15%
Cc1ccc(S(=O)(=O)Nc2n[nH]nc2C(=O)NC2CCCCC2)cc1 | -3 | -0.2% | -7% | 3%
O=c1c2ccccc2oc2ccc(NCCCn3ccnc3)cc12 | / | ? | ? | -16%
COCCNC(=O)CN1CCC(NC(=O)c2ccco2)CC1 | -15 | -3.2% | 3% | -34%
CC1CCN(c2oc(-c3ccccc3F)nc2C#N)CC1 | 8 | -0.8% | 0% | -42%
COc1ccc(C(=O)OCC(=O)c2ccc[nH]2)c(OC)c1 | / | 1.5% | 4% | /
O=C(CSc1nc2ccsc2c(=O)n1CC1CCC(C(=O)O)CC1)c1ccc(Cl)cc1 (centres undefined) | 5 | -7.0% | 7% | -9%
CCn1c(SCC(=O)Nc2ccccc2F)nnc1-c1ccoc1C | / | 2.7% | 5% | -8%
C/C(=N\NC(=O)c1nnn(-c2nonc2N)c1CN(C)c1ccccc1)c1cccc(O)c1 | / | -4.9% | -5% | -4%
CC(=O)c1ccc(S(=O)(=O)N2CCN(C(=O)C3CCCC3)CC2)cc1 | / | -2.2% | ? | 4%
Cc1ccccc1NS(=O)(=O)c1nnc(NC(=O)c2ccccc2F)s1 | / | 3.6% | 6% | -21%
CCOc1ccc(NC(=O)CN(C)C(=O)c2ccccc2SCC(=O)N2CCCC2)cc1OCC | / | 0.9% | 3% | /
O=C(O)c1ccc2c(c1)[C@@H]1C=CC[C@@H]1[C@H](c1ccccn1)N2 | / | ? | ? | /
Cc1ccc(C(=O)c2cc3ccccc3o2)cc1[N+](=O)[O-] | 9 | -4.7% | 0% | -9%
Cc1ccc(SCC(=O)c2cc(C)c(O)c(C)c2)cc1 | / | -0.7% | 7% | -43%
CCOc1ccccc1N(CC(=O)N1CCCCCC1)S(=O)(=O)c1ccc(C)cc1 | / | 3.0% | -6% | 0%
COc1ccc(Cl)cc1NC(=O)NCCCl | 1 | 2.9% | 1% | -8%
COC(=O)c1c(NC(=O)c2ccc(Br)s2)sc2c1CCC2 | 4 | ? | ? | -4%
OCC1CCCCN1C(=S)NCc1ccco1 (centres undefined) | -4 | -1.6% | -7% | 0%
COc1ccc(C(=O)COC(=O)C(CCSC)NC(=O)COc2ccccc2)cc1 (centres undefined) | / | 5.2% | 36% | /
(listing goes on)
SMILES | GLA inh pH 4.5 | Rango-impB inh | Rango dissoc inh | miR-21 FLuc
CCCCNC(=O)CN1C(=O)C(CC)Oc2ccc(Cl)cc21 (centres undefined) | 2 | 1.8% | 1% | -5%
COc1ccc(C(=O)Oc2ccc[nH]c2=O)cc1 | -3 | 0.2% | 25% | -6%
CC(C)(C)OC(=O)NCCc1nnc(SCc2cccc(Cl)c2)o1 | -11 | 0.5% | -3% | 0%
Cc1cccc(C(=O)c2c(N)sc3c2CCCC3)c1 | -1 | 2.4% | -14% | -10%
O=C(NCCCN1CCCC1=O)c1cc(-c2ccc(F)cc2)nc2ccccc12 | / | 0.5% | 8% | /
Cn1c2c(c(=O)n(C)c1=O)[C@@]1(C(=O)Nc3ccccc31)C(C#N)=C(N)O2 | 5 | 4.1% | -11% | -1%
CC1CN(S(=O)(=O)c2ccc(NC(=O)c3cc(-c4ccccc4O)n[nH]3)cc2)CC(C)O1 (centres undefined) | 3 | -4.3% | 4% | 29%
CSc1cnn(Cc2ccccc2)c(=O)c1SCc1ccccc1 | -10 | -2.5% | 13% | -8%
O=C(COc1nnc2ccccn12)N1CCN(S(=O)(=O)c2ccccc2)CC1 | / | 3.5% | -13% | /
COc1ccccc1CNS(=O)(=O)c1cc(-c2cc(C)no2)ccc1C(C)C | / | -4.4% | 17% | 12%
Cc1cc2nc(-c3ccncc3)cc(C(F)(F)F)n2n1 | 0 | -4.3% | 2% | -1%
Cn1c(NC(=O)CC(C)(C)C)cc(=O)n(C)c1=O | 3 | -0.7% | -12% | -9%
COCCNC(=O)C(=O)NCC1OCCN1S(=O)(=O)c1ccc(C)cc1 (centres undefined) | / | -0.5% | -12% | -2%
COc1cccc(-c2nn(-c3ccccc3)cc2CN(C)C(C)c2ccncn2)c1 (centres undefined) | -13 | -0.1% | 3% | -6%
OCC[C@@H]1C[C@@H](O)[C@H](O)[C@]2(Cc3ccccc3O2)O1 | / | 2.4% | -4% | -1%
